# WNV NS2B-NS3 inh – inhibitors of West Nile virus NS2B-NS3 protease | P06935 | WNV NS2B-NS3 protease, fluorogenic substrate Ex360/Em465; active compounds read low | z-score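 (tested at a level between 10 and 100 µM)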 | 65,000 compounds, 0.18% hits;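 active = z-score at -3 or under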;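 note: score is relative to mean and spread of the compound wells of a plate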
# Target sequence (P06935 1371-1501 limits assumed): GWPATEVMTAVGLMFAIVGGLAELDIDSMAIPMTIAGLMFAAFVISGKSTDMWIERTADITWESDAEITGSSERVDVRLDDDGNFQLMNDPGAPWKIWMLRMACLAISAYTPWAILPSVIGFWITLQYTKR
# Target sequence (P06935 1502-1679 limits assumed): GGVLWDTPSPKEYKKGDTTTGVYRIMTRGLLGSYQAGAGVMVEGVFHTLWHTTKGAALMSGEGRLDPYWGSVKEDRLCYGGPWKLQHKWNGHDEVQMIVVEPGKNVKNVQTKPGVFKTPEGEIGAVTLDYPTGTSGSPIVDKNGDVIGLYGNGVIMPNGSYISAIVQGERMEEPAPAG
# Hsc70 – small molecules displacing fluorescent ligand from Hsc70 – biochemical, fluorescence polarization, primary screen (AID 568) | one-dose displacement, % at 20 µM; IC50 in µM for titrated hits | Hsc70 fluorescence polarization, probe displacement; higher % means a stronger effect; strong numbers were not always called active | 83,000 tested, under 10 active;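 active = displacement above 50% without optical interference and an IC50 on retest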;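 note: ATPase domain with a fluorescein-tagged ATP probe; 0% = vehicle and 100% = excess ADP; read after one hour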
# MT1-MMP promoter – MT1-MMP gene expression reporter suppression – cell-based, luciferase reporter, luminescence (AID 618); calls from a first round at 10 µM; hits with a dose series show EC50 in µM; MT1-MMP promoter luciferase reporter cells, luminescence; 87,000 compounds, 0.62% hits;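 active = over half of the reporter light lost at 10 µM or EC50 under 50 µM; inactive = the rest and hits that failed the dose series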;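 note: actives suppress MT1-MMP promoter-driven transcription so potencies describe inhibitors; HT1080 fibrosarcoma cells; overnight exposure; toxic or luciferase-blocking compounds were not removed from the actives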
# * = called active by the depositor; i = inactive; nt = not tested or not shown.
SMILES,WNV NS2B-NS3 inh,Hsc70,MT1-MMP promoter
COC(=O)c1cccc(NC(=O)CSc2nnc(COc3ccc(C#N)cc3)n2-c2ccccc2)c1,-0.05,-5.0%,i
NC(=O)CSc1nnc(COc2ccccc2)n1CCc1ccccc1,0.25,11.3%,i
COc1ccc(OCC(=O)N2CCN(c3cccc(C(F)(F)F)c3)CC2)cc1,0.49,1.5%,i
NNC(=O)c1nc(-c2ccccc2)n2c1CCCCC2,nt,2.7%,i
COc1ccc(C2(CNC(=O)CCC(=O)O)CCCC2)cc1OC,nt,4.0%,i
c1ccc(OCCOCCSc2ncccn2)cc1,-1.64,-3.9%,i
CCn1c(SCC(=O)OC(C)C)nnc1-c1cccc(Cl)c1,0.06,-6.7%,i
CCCc1nc2oc3c(NCCN4CCOCC4)ncnc3c2c2c1CCCC2,1.81,-0.8%,i
CC(C)(C)c1ccc(OCC(=O)O)cc1,0.09,3.0%,i
O=C(C1c2ccccc2Oc2ccccc21)N1CCN(c2ccc(Cl)cc2)CC1,nt,-2.2%,i
CCOC(=O)C1CCCN(c2ncnc3c2[nH]c2cccc(OC)c23)C1 (stereo not given),-0.08,-2.5%,i
Cc1ccc(S(=O)(=O)N2CC3(C)CN(S(=O)(=O)c4ccc(C)cc4)CC(C)(C2)C3=O)cc1,nt,8.8%,i
Cn1nnnc1CCOCCc1nnnn1C,-0.95,7.0%,i
O=C(/C=C/NNC(=O)c1ccccc1)c1ccccc1,nt,0.8%,i
CCCCn1c(=N)n(CC(=O)c2ccco2)c2ccccc21,nt,2.6%,i
CCC(=O)N1c2ccc(S(=O)(=O)CCC(=O)Nc3nccs3)cc2CC1C (stereo not given),0.48,-7.0%,i
COc1ccc2[nH]c(=O)c(CN(C(C)=O)c3cccc(C)c3)cc2c1,-0.37,-1.5%,i
Cc1nc2nc(C)c(CCC(=O)N3CCc4ccccc43)c(C)n2n1,0.55,-6.9%,i
N#Cc1ccc(C(c2nnnn2C2CCCC2)N2CCC(Cc3ccccc3)CC2)cc1 (stereo not given),nt,1.3%,i
CCOC(=O)N1CCC(Nc2c(NCCN3CCN(Cc4ccccc4)CC3)c(=O)c2=O)CC1,1.57,-3.5%,i
N#CCCCSc1nnc(CSc2nc3ccccc3s2)n1-c1ccccc1,-0.47,6.9%,i
Cc1ccc(C)c2[nH]c(=O)c(CN(CC3CCCO3)S(=O)(=O)c3ccc4c(c3)OCCO4)cc12 (stereo not given),0.07,4.6%,i
COCCCNC(=O)C1C2C=CC3(CN(Cc4ccc(C)cc4)C(=O)C13)O2 (stereo not given),-0.17,-3.1%,i
CCOC(=O)C1CCCN(C(=O)CN2C(=O)COc3ccc(C(C)(C)C)cc32)C1 (stereo not given),0.7,-1.6%,i
CC(C)(C)N(Cc1cc2ccccc2[nH]c1=O)C(=O)c1cccnc1,-1.36,-3.0%,i
CCOC(=O)c1c(C)n(C)c2ccc(OCC(O)CN3C(=O)c4ccccc4S3(=O)=O)cc12 (stereo not given),-1.28,13.6%,i
CCN1CCN(CCC(=O)Nc2ccc3c(c2)OCO3)CC1,nt,-5.1%,i
Cc1ccccc1C1CC(c2ccc(F)cc2)Nc2nc(N)nn21 (stereo not given),-0.24,-2.2%,i
Cc1cccc(C(OC(=O)c2ccco2)C(=O)NCc2ccccc2)n1 (stereo not given),-0.14,-3.1%,i
CCCCOc1ccc(/C(N)=N/O)cc1,0.07,-6.1%,i
c1n[nH]c(SCCCCSc2ncn[nH]2)n1,-0.42,-7.0%,i
O=C(Oc1c(Cl)cc(Cl)c2cccnc12)N1CCCCC1,0.07,8.5%,i
CC(C)CC(C(=O)O)C(C)CC(=O)Nc1ccn(-c2ccccc2)n1 (stereo not given),-0.4,-5.3%,i
CCOC(=O)C1=C(O)CSC1=Nc1ccc(Cl)cc1,-0.39,-6.2%,i
CCOC(=O)N1CCC(n2c(SCC(=O)Nc3nccs3)nc3ccsc3c2=O)CC1,-0.06,0.0%,i
O=C(NCc1ccc(F)cc1)C1CCN(S(=O)(=O)N2CCCCC2)CC1,1.09,-9.3%,i
O=C(CCn1cnc2ccccc2c1=O)Nc1cccc(Cl)c1,0.51,-1.0%,i
COc1cccc(N2C(=O)CC(Nc3ccc(N4CCOCC4)cc3)C2=O)c1 (stereo not given),-1.07,9.8%,i
Cc1ccc(CN2C(=O)CCC2C(=O)NC(C)C)cc1 (stereo not given),-0.19,-6.1%,i
CCOCCCN1CC(C(=O)NCCc2ccc(C)cc2)CC1=O (stereo not given),-0.61,-0.3%,i
CCOC(=O)CN(C(=O)CNC(=O)c1ccco1)C(C(=O)NC1CCCC1)c1ccccc1OCC (stereo not given),1.31,-0.1%,i
Cc1ccc(OC(=O)N2CCOCC2)cc1,nt,-8.1%,i
CCOc1ccccc1C1CC(c2ccc(Br)cc2)Nc2nc(N)nn21 (stereo not given),0.7,5.4%,i
COc1ccc(CN(C(=O)c2ccco2)c2ccc(Br)cc2)cc1OC,2.04,-6.2%,i
COc1cccc(-c2cc(C(=O)NCc3ccc(Cl)cc3)no2)c1,0.22,-2.7%,i
CN1C(=O)N(C)C2C1N(C)S(=O)(=O)N2C (stereo not given),-0.05,3.6%,i
O=C(Nc1cccnc1N1CCOCC1)c1cc2ccccc2oc1=O,-0.12,6.9%,i
N/C(CC(=O)NCCOc1ccccc1)=N\O,1.12,0.3%,i
CC(C)C(=O)Nc1ccc2c(c1)nc1n2CCSC1,0.17,-5.6%,i
Cn1cccc1Cc1nnc(SCC(=O)Nc2ccc(F)cc2F)n1-c1ccc(F)cc1,0.23,0.9%,i
CCc1ccc(NC(=O)c2cnc3n(c2=O)CCS3)cc1,1.18,0.7%,i
c1ccc(Nc2nc3ccccc3[nH]2)nc1,1.66,-1.7%,i
O=C(NCc1ccccc1)NC1(C(=O)N2CCN3CCCC3C2)CCCCC1 (stereo not given),nt,-3.4%,i
Cc1ccc(S(=O)(=O)N2CCOCC2)cc1C(=O)N1CCOCC1,-0.48,1.8%,i
CCOC(=O)Cn1c(=O)n(Cc2ccco2)c(=O)c2ccc(C(=O)NCCc3ccccc3)cc21,-0.9,-1.2%,i
CCn1nnnc1SCC(=O)Nc1nc(C)c(C)s1,nt,3.0%,i
C=CCN1C(=O)/C(=N/n2cnnc2)c2ccccc21,-1.08,-1.1%,i
CCSc1nnc(-c2cccnc2)n1-c1ccc(C)c(Cl)c1,nt,3.0%,i
Cn1c(-c2ccc3nc(N)sc3c2)nc2cc(N)ccc21,1.18,3.2%,i
Cc1ccc(NC(=O)CNS(=O)(=O)c2cccs2)cc1F,-0.71,1.2%,i

# Continuation:
SMILES,WNV NS2B-NS3 inh,Hsc70,MT1-MMP promoter
Cc1cccc(OCCN2CSC(=S)N(C)C2)c1,-1.22,-3.2%,i
C/C(=C\C(=O)c1ccc(Cl)cc1)Nc1ccc(N2CCOCC2)cc1,nt,4.9%,i
Cc1[nH]c2ccccc2c1C(=O)CSCC(=O)O,-1.1,2.0%,i
Nc1ncnc2c1ncn2CCN1CCOCC1,-0.42,3.3%,i
CCCCNC(=O)Nc1ccccc1C(=O)NCCC,nt,-4.6%,i
COC(=O)c1c(-c2ccc(F)cc2)noc1N,0.26,-8.8%,i
CCOC(=O)C1(N(CC)CC)Sc2cc(C)ccc2NC1=O (stereo not given),-0.68,-4.0%,i
Cc1csc(-c2cnn(-c3ccccc3)c2NC(=O)c2ccc(C(F)(F)F)cc2)n1,nt,-9.9%,i
COc1ccc(N(C(=O)c2ccco2)S(=O)(=O)c2cccs2)cc1,-0.08,-6.8%,i
O=C(NCc1ccco1)c1cc(-c2ccccn2)nc2ccccc12,0.92,-0.2%,i
CN(C)C(=O)c1nnc(Cc2ccc(Cl)cc2)o1,-0.01,-2.7%,i
Cc1noc(NS(=O)(=O)c2ccc(N3C(=O)c4ccccc4C3=O)cc2)c1C,0.36,5.0%,i
Cc1nc2nc(-c3ccc(Cl)cc3)nn2c(C)c1Cl,nt,-5.5%,i
O=C(CCCn1c(SCC(=O)NC2CCCC2)nc2ccccc2c1=O)NCC1CCCO1 (stereo not given),-0.19,-8.1%,i
O=c1c2c(-c3ccco3)csc2nc(SCc2cn3cccnc3n2)n1-c1ccccc1,0.33,-16.4%,i

# 2 compounds from above, reduced to Hsc70 and WNV NS2B-NS3 inh:
molecule	Hsc70	WNV NS2B-NS3 inh
O=c1c2c(-c3ccco3)csc2nc(SCc2cn3cccnc3n2)n1-c1ccccc1	-16.4%	0.33
CCCCNC(=O)Nc1ccccc1C(=O)NCCC	-4.6%	nt

# 7 records picked at random from those above, as already listed:
SMILES,WNV NS2B-NS3 inh,Hsc70,MT1-MMP promoter
Nc1ncnc2c1ncn2CCN1CCOCC1,-0.42,3.3%,i
CN(C)C(=O)c1nnc(Cc2ccc(Cl)cc2)o1,-0.01,-2.7%,i
Cc1nc2nc(-c3ccc(Cl)cc3)nn2c(C)c1Cl,nt,-5.5%,i
CCCCNC(=O)Nc1ccccc1C(=O)NCCC,nt,-4.6%,i
O=c1c2c(-c3ccco3)csc2nc(SCc2cn3cccnc3n2)n1-c1ccccc1,0.33,-16.4%,i
C/C(=C\C(=O)c1ccc(Cl)cc1)Nc1ccc(N2CCOCC2)cc1,nt,4.9%,i
Cc1csc(-c2cnn(-c3ccccc3)c2NC(=O)c2ccc(C(F)(F)F)cc2)n1,nt,-9.9%,i

# More compounds follow:
SMILES,WNV NS2B-NS3 inh,Hsc70,MT1-MMP promoter
COc1ccc(NC(=O)c2nc3nc(C)cc(C(F)F)n3n2)cc1OC,-0.64,-0.4%,i
CSc1nsc(SC)c1C(=O)N1CCN(S(=O)(=O)c2ccc(C)cc2)C1C(C)C (stereo not given),nt,-1.7%,i
CC(C)OP(=O)(c1ccc(N(C)C)cc1)C(O)c1ccccc1 (stereo not given),nt,3.5%,i
O=C(c1noc2c1CCCCC2)N1CCOCC1,-0.41,-3.3%,i
O=C(O)Cc1c(O)ccc2ccccc12,nt,7.9%,i
Cc1ccc(CNC(=O)CSc2n[nH]c(N)n2)cc1,-0.36,-0.2%,i
N#CC1=C(N)C(C#N)(C#N)C(c2cccnc2)C2CN(C(=O)OCc3ccccc3)CC=C12 (stereo not given),nt,4.4%,i
CCCS(=O)(=O)N1CCC(C(=O)NC2CCC(C)CC2)CC1 (stereo not given),-0.99,-9.1%,i
C(=N\n1cnnc1)/c1ccc(OCc2ccccc2)cc1,0.36,-2.6%,i
CCCCCCCCn1c(N2CCN(c3cccc(Cl)c3)CC2)nc2c1c(=O)[nH]c(=O)n2C,nt,2.6%,i
COc1ccccc1C1C(C#N)=C(N)Oc2cc(C)n(Cc3ccccn3)c(=O)c21 (stereo not given),0.14,6.0%,i
NC(=O)CN1CCN(c2nc(-c3ccc(F)cc3)cs2)CC1,nt,1.7%,i
CC1(C)CC(=O)C2=C(C1)OC(N)=C(C#N)C2c1ccc(OC(=O)N2CCOCC2)cc1 (stereo not given),-1.05,36.4%,i
O=C(NCc1ccccc1)c1ccc2nccnc2c1,nt,-0.3%,i
CSCC[C@H](NC(=O)NCc1cccs1)C(=O)O,1.92,3.4%,i

# Part of the list above in a different format.
# Value order: WNV NS2B-NS3 inh, Hsc70, MT1-MMP promoter
CSCC[C@H](NC(=O)NCc1cccs1)C(=O)O
→ 1.92, 3.4%, i
NC(=O)CSc1nnc(COc2ccccc2)n1CCc1ccccc1
→ 0.25, 11.3%, i

# (listing goes on)
SMILES,WNV NS2B-NS3 inh,Hsc70,MT1-MMP promoter
O=C1CC(c2ccc(Cl)cc2)n2nc(N3C(=O)CCC3=O)nc2N1 (stereo not given),1.14,1.3%,i
CCN(CC)S(=O)(=O)c1ccc(C(=O)NCc2ccc(C)cc2)cc1,nt,-1.2%,i
O=C(Nc1ccc2c(c1)OCCO2)c1cc(-n2cnnc2)ccc1Cl,-0.67,10.0%,i
COc1ccc(C)cc1S(=O)(=O)Nc1cc(Cl)ccc1Cl,nt,3.5%,i
CCC1CCCCN1CCNC(=O)CNS(=O)(=O)c1ccc2nc(C)sc2c1 (stereo not given),2.82,3.6%,i
Cc1ccc(-n2ncc3c(=O)n(CC(=O)NC4CCCCC4)cnc32)cc1,0.34,-13.0%,i
c1ccc(-n2nnnc2Oc2ccc(-n3ccnc3)cc2)cc1,-0.8,2.1%,i
CCN(CC)CCN1C(=O)C(=O)/C(=C(/O)c2c(C)[nH]c(C(=O)OC)c2C)C1c1ccccc1 (stereo not given),0.36,-3.0%,i
O=C(NCc1ccccn1)/C(=N/O)c1ccccc1,-0.36,-6.3%,i
Cc1cc(NC(=O)c2sccc2C)n(-c2cccc(Cl)c2)n1,0.18,0.2%,i
Nc1nonc1NC(=O)CSc1nc2ccccc2s1,-0.4,-1.2%,i
CC(=C1C2C=CC1C1C(=O)NC(=O)C21)c1ccccc1 (stereo not given),-0.75,-3.6%,i
O=C(NCCC1=CCCCC1)C1CC(=O)N(C2CCCCCC2)C1 (stereo not given),-0.17,-6.1%,i
CC(=O)c1cc2c(cc1NC(=O)CN1CCOCC1)OCO2,0.82,-1.8%,i
Cc1ccc(S(=O)(=O)N2CCN(C(=O)CSc3nnc(C)c(=O)[nH]3)CC2)cc1,-1.53,-1.9%,i
Cc1ccc(CS(=O)(=O)CCC(=O)NCCC(C)C)cc1,nt,-3.2%,i
O=C(c1ccc2c3c(cccc13)CC2)N1CCOCC1,-0.24,-1.8%,i
CC1CCCN(c2nc3c(c(=O)[nH]c(=O)n3C)n2CCSc2nc3ccccc3o2)C1 (stereo not given),1.32,2.2%,i
Clc1ccccc1-c1ccc(CN2CCN(c3ccccc3)CC2)o1,nt,5.5%,i
Cc1nnc(NC2=NCCCCC2)o1,1.32,4.7%,i
